PINK1 modulator – A Quantitative High throughput Screen to Identify Chemical Modulators of PINK1 Expression | 410,000 compounds, 0.2% hits | Potency, µM (top dose mostly 76.6 µM), for inactives: at the top dose activation (PINK1 increase), hits mostly activators | PINK1 immunofluorescence, high-content cytometry, 24 h; active = well fitted activation curve with a large enough effect; inconclusive = small, poorly fitted or top-dose-only effect; inactive = flat fitted curve, though single readings scatter; cell line not stated here;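 also: potency is read from the fitted curve at half-maximal effect; % of control where 0% means no effect; nearly all actives have a fitted effect of over 65% in size; a mitochondrial uncoupler was the plate control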
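Readout is PINK1 immunofluorescence, quantified alongside mitochondrial, cell and nuclear markers by laser-scanning microplate cytometry. Cells from a stable line were exposed to compound titrations (5 concentrations) for 24 hours, with CCCP controls.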
TRPML1 ag – qHTS for Agonists of the Human Mucolipin Transient Receptor Potential 1 (TRPML1); TRPML1-expressing cells, Ca2+ dye fluorescence, FDSS; host cell line not named in the record; reference of the full effect not given here; Mucolipin-1 (Homo sapiens), Q9GZU1; activation, % (concentration not given with the values); AID 624414, 2012; 410,000 compounds, 0.12% hits; in the data active = activation above about 50%; inconclusive = about 30% to 50%; inactive = below about 30%; also: 0% is about no effect; the text of the record puts the active cut at 80%
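Calcium fluorescence on an FDSS kinetic reader gave the read-out. Tet-induced TRPML1-DL cells were plated overnight, dye-loaded (Ca8 with quencher, 45-90 min, room temperature, dark), then read 110 s after compound addition, and again 110 s after 4uM final 54-4 (EC80).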
Six1-Eya2 inh – qHTS Assay for Inhibitors of the Six1/Eya2 Interaction; Homeobox protein SIX1 (Homo sapiens) + Protein phosphatase EYA2 (Homo sapiens), …; AlphaScreen GST-Six1/His-Eya2 binding, biochemical; stronger effect = lower value; control for the full effect not named in the record; activity change, % (no concentration beside the values); 360,000 compounds, 0.56% hits; in the data active = activity change below about -65%; inconclusive = about -30% to -65%; inactive = above about -30%; also: % is scaled to controls: 0 for no effect and ±100 for the full control effect
Target sequence (O00167 whole entry, looked up): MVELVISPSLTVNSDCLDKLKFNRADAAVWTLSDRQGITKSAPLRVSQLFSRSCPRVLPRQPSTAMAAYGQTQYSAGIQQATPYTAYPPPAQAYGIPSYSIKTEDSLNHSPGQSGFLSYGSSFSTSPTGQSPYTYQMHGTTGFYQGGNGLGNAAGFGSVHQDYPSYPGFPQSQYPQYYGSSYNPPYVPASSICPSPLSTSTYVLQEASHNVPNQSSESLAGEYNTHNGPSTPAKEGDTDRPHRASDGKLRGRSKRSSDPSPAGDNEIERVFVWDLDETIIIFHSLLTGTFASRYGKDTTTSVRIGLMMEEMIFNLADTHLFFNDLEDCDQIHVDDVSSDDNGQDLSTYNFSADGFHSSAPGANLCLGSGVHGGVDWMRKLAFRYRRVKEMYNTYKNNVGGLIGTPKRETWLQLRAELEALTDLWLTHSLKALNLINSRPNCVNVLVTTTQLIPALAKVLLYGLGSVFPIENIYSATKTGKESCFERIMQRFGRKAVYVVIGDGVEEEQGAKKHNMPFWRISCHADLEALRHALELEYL
Target sequence (Q15475 whole entry, looked up): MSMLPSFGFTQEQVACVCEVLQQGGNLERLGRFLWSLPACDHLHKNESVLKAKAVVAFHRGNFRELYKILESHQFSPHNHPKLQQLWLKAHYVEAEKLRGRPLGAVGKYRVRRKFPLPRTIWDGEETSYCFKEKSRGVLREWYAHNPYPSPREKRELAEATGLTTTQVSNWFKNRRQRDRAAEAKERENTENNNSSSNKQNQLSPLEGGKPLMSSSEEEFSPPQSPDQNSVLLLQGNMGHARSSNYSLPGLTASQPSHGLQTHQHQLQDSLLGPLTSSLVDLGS
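Compounds are tested against tagged Six1 and Eya2 proteins bridged by glutathione donor and nickel acceptor beads; after a one-hour incubation at 37 °C without light, AlphaScreen emission is recorded.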
TRPML1 blocker – qHTS for Inhibitors of the Human Mucolipin Transient Receptor Potential 1 (TRPML1) | activity change, negative = inhibition, % (no concentration beside the values) | Mucolipin-1 (Homo sapiens), Q9GZU1 | 390,000 compounds, 0.02% hits | TRPML1-inducible cells, Ca2+ dye fluorescence, FDSS; stronger effect = lower value; inhibition of EC80 agonist-evoked calcium signal; in the data active means activity change below about -50%; inconclusive means about -30% to -50%; inactive means above about -30%;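 also: stimulus is agonist 54-4 at its EC80 concentration; % is scaled to controls: 0 for no effect and ±100 for the full control effect; compound concentration not given in the record; the text of the record puts the active cut at -80%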
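Calcium fluorescence in TRPML1-DL cells induced overnight with Tet: a 110 s read after compound pin addition, then a 110 s antagonist read after challenge with 54-4 at 4 uM final (EC80).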
D2 agonist – Beta-Arrestin HTS for Positive Allosteric Modulators of the Human D2 Dopamine Receptor: Agonists | activation, % (test concentration not listed) | D(2) dopamine receptor (Homo sapiens), P14416 | DiscoveRx PathHunter D2 beta-arrestin, luminescence, 90 min; 100% = 57 uM dopamine signal | 360,000 compounds, 0.084% hits; in the data active = activation above about 40%; inconclusive = about 15% to 40%; inactive = below about 15%; also: compound concentration not given in the record; the text of the record calls up to 30% inactive
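DiscoveRx PathHunter D2 beta-arrestin cells (2,100/well) attached overnight, then compound-stimulated 90 min at 37 C in HBSS/10 mM HEPES/0.1% Tween-20 buffer; beta-galactosidase complementation read by luminescence after 1 h at ambient temperature. Dopamine 57 uM final (EC100) as control.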
CtBP-E1A inh – qHTS Assay for Inhibitors of the CtBP/E1A Interaction; CtBP / adenovirus E1A interaction (AlphaScreen); AlphaScreen GST-E1A/His-CtBP binding, 1536-well; stronger effect = lower value; control for the full effect not named in the record; activity change, % (concentration not given with the values); 340,000 compounds, 0.49% hits; in the data active means activity change below about -65%; inconclusive means about -30% to -65%; inactive means above about -30%; also: % is scaled to controls: 0 for no effect and ±100 for the full control effect
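Protein mix (5X: 125 nM each GST-E1A, His-CtBP) was incubated with pinned compound 2 h at 37 deg C in dark, in 50 mM Tris pH 8.0 buffer with 300 mM NaCl. Glutathione donor and nickel acceptor beads followed; AlphaScreen signal read after 1 h.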
* hit, by the source's call; ? = inconclusive; nt = not tested or not shown.

molecule	TRPML1 blocker	PINK1 modulator	Six1-Eya2 inh	D2 agonist	CtBP-E1A inh	TRPML1 ag
COc1cc(/C=N/NC(=O)c2c(-c3ccccc3)noc2C)ccc1O	-2	-0.6%	4	1.3	-9	-0.5
CC(C)NC(=O)C1(C)Cc2c(-c3ccc(N(C)C)cc3)ccnc2O1 (configuration not stated)	nt	-0.1%	-2	1.5	-9	-1.1
O=C(Nc1cccc(Cl)c1Cl)c1ccc2c(c1)N(Cc1cccc(Cl)c1)C(=O)c1ccccc1S2(=O)=O	19	1.9%	nt	nt	nt	2.0
CCc1cc(C(N)=O)c(NC(=O)c2ccc(OC)cc2)s1	-7	-1.8%	?	1.0	?	0.4
CCOc1ccccc1NC(=O)CNS(=O)(=O)c1ccc2nc(C)sc2c1	-1	0.0%	-3	-3.5	-2	-1.0
O=C(Cc1cccs1)Nc1nc(-c2cccnc2)cs1	0	4.4%	0	-1.8	4	-0.7
COc1ccc(C(=O)NCCNc2ccccc2[N+](=O)[O-])cc1	22	0.7%	-8	-3.4	3	2.9
O=C(NC1CCCC1)C(c1ccccn1)N(C(=O)c1csnn1)C1CCCCC1 (configuration not stated)	-9	-2.1%	1	2.2	0	0.4
CC(=O)Nc1cnc(-c2ccc(O)cc2C)cn1	nt	-0.2%	1	4.1	10	-1.0
CCOc1ccc(S(=O)(=O)N2Cc3ccccc3CC2C(=O)Nc2ccc(NC(C)=O)cc2)cc1 (configuration not stated)	25	0.8%	nt	nt	nt	-0.5
Cc1ccccc1OCC(=O)Nc1ccc(N2CCOCC2)cc1N1CCOCC1	-2	0.9%	-4	-0.8	-5	-0.1
O=C(CSc1ccc(-c2ccc(Br)cc2)nn1)NCC1CCCO1 (configuration not stated)	-1	0.7%	-14	-2.3	0	-0.9

The last six compounds of the section before are carried over, then new ones follow:
molecule	TRPML1 blocker	PINK1 modulator	Six1-Eya2 inh	D2 agonist	CtBP-E1A inh	TRPML1 ag
COc1ccc(C(=O)NCCNc2ccccc2[N+](=O)[O-])cc1	22	0.7%	-8	-3.4	3	2.9
O=C(NC1CCCC1)C(c1ccccn1)N(C(=O)c1csnn1)C1CCCCC1 (configuration not stated)	-9	-2.1%	1	2.2	0	0.4
CC(=O)Nc1cnc(-c2ccc(O)cc2C)cn1	nt	-0.2%	1	4.1	10	-1.0
CCOc1ccc(S(=O)(=O)N2Cc3ccccc3CC2C(=O)Nc2ccc(NC(C)=O)cc2)cc1 (configuration not stated)	25	0.8%	nt	nt	nt	-0.5
Cc1ccccc1OCC(=O)Nc1ccc(N2CCOCC2)cc1N1CCOCC1	-2	0.9%	-4	-0.8	-5	-0.1
O=C(CSc1ccc(-c2ccc(Br)cc2)nn1)NCC1CCCO1 (configuration not stated)	-1	0.7%	-14	-2.3	0	-0.9
Cc1cccc(C(=O)NC(=S)Nc2ccc(N3CCOCC3)cc2)c1	10	-1.2%	-10	2.1	-5	-0.6
Cc1ccc2nc(SCC(=O)N3CC(C)OC(C)C3)nc(=O)n2c1 (configuration not stated)	-9	0.4%	-5	-0.2	2	0.0
O=C(CC1SC(=Nc2ccc3c(c2)OCCO3)NC1=O)Nc1ccc(F)cc1F (configuration not stated)	-7	4.7%	4	1.5	1	0.1
COC(=O)c1ccccc1NC(=O)CSc1ccc(C)cc1	19	-2.3%	21	-0.7	36	1.4
CC(NC(=O)COc1ccccc1)C(=O)NCc1ccc(S(N)(=O)=O)cc1 (configuration not stated)	-13	-0.6%	-6	1.8	-7	0.8
COc1cc(CCC(C)=O)ccc1OC(=O)c1c(F)cccc1Cl	4	16%	11	0.8	21	1.2
Cc1ccc[n+](CC(=O)N2CCCCC2)c1C	-5	-2.3%	-1	-1.2	8	-1.1
Cc1ccc(S(=O)(=O)N2CCCC2)cc1C(=O)O	-1	-0.1%	26	-2.4	0	-0.4
C=CCn1c(=O)c(C(=O)NCc2ccc(Cl)cc2)c(O)c2ccccc21	-6	?	19	-1.9	nt	-0.3
COc1cc(NS(=O)(=O)c2ccc(NC(=O)c3ccc([N+](=O)[O-])cc3)cc2)ncn1	-3	2.8%	-2	-4.1	14	-0.2
CC1(C)Cc2ccccc2-c2nnc(-c3ccc(O)cc3)n21	8	6.5%	-17	-0.2	1	-0.1
Cc1ccc(CN=c2c([N+](=O)[O-])nn(-c3cccc(C)c3)n2O)cc1	-1	13%	?	13	-14	1.5
O=c1c2c(nc3cc(-c4ccc(F)cc4)[nH]n13)CCC2	22	2.4%	-5	-1.3	1	-0.8
COc1cc(/C=C(\C#N)c2nc3ccccc3[nH]2)cc(Cl)c1OCc1ccccc1Cl	-14	?	nt	nt	nt	-0.3
Cc1cccc(NC(=O)Cc2c(F)cccc2Cl)n1	2	-0.4%	5	-0.9	7	-0.5
COc1ccc(Oc2nnc(-c3ccccc3)cc2C#N)cc1	-11	13%	13	-0.1	-6	-0.1
O=C(Nc1nc(-c2ccccn2)cs1)c1ccccc1-n1cnnn1	nt	1.1%	-91*	-2.2	-98*	nt
O=C(NCC(=O)N(c1ccccc1)C(C(=O)NC1CCCC1)c1cccnc1)c1ccco1 (configuration not stated)	-2	0.1%	2	-0.7	14	-0.8
Cc1ccc(S(=O)(=O)Nc2cc(NC(=O)CN3CCOCC3)ccc2Cl)cc1	-7	-2.0%	4	-1.0	-7	1.0
Cc1cnc(C(=O)OC(C)C(=O)Nc2ccc3c(c2)OCCO3)cn1 (configuration not stated)	1	0.2%	0	1.4	3	0.3
Cc1ccc(-n2ncc3c(=O)[nH]c(SCC(=O)N4CC(=O)Nc5ccccc54)nc32)cc1	-12	1.5%	3	-0.6	5	-0.5
CCN(CC)C(=O)C1=C(C)N(Cc2ccc(OC)cc2)C(=O)C(CC(=O)NC2CC2)C1 (configuration not stated)	17	0.4%	-1	-7.0	-11	0.0
Cc1ccc(N(Cc2ccccc2F)S(C)(=O)=O)c(C)c1	-5	12%	4	3.5	10	4.5
CCSc1nnc(NC(=O)[C@@H](NC(=O)c2cc(OC)cc(OC)c2)C(C)C)s1	-2	1.9%	2	-3.3	0	0.1
COc1ccc(-c2nnc(Nc3nc4c(OC)cccc4s3)o2)cc1	4	8.7%	-11	-2.5	-23	1.3
CCOC(=O)N/N=C/c1cn(CCCOc2ccccc2)c2ccccc12	1	5.0%	-2	-5.4	-4	0.2
O=C(N/N=C/c1ccc(Cl)cc1Cl)c1cccc(N2CCCC2=O)c1	14	5.6%	-1	-0.1	-14	3.2
Cc1nn(Cc2ccccc2)c(C)c1C(=O)NCCCN1CCCC1=O	4	2.2%	7	3.4	4	0.8
COc1ccc(C(=O)Nc2ccc(C)c(S(=O)(=O)N3CCCCCC3)c2)cc1	45	1.3%	-21	7.3	4	1.3
CC(C)(C)OC(=O)N(Cc1ccccc1)Cc1cccc(OCc2cccc(NC(=O)C3CC3)c2)c1	28	0.1%	1	0.9	0	1.9
CC1(C(=O)Nc2c(F)c(F)c(F)c(F)c2F)CC1(Br)Br (configuration not stated)	12	1.7%	3	-3.8	4	1.9
Cc1cc(C)n(-c2nc(-c3ccc(Cl)cc3)cs2)n1	49	2.9%	3	-4.1	4	3.8
Nc1cc(N2CCCC2)c(Cl)cc1[N+](=O)[O-]	-17	-0.6%	-21	-5.1	0	1.1
O=C(NCc1cccs1)c1ccc(-c2ccc(F)c(F)c2)c2ccoc12	nt	1.9%	3	4.5	15	1.0
O=C(/C=C(O)/C=C/c1ccc(O)cc1)/C=C/c1ccc(O)cc1	-10	12%	0	-5.5	0	81*
Cc1cccc(NC(=O)C(NS(=O)(=O)c2ccc3c(c2)oc(=O)n3C)C(C)C)c1 (configuration not stated)	-9	0.4%	nt	nt	nt	0.0
Cc1cc2[nH]c(=O)c(=O)[nH]c2cc1S(=O)(=O)N1CCC(C)CC1	6	4.1%	-1	-1.7	0	2.2
C/C(=N\OC(=O)c1c(-c2c(F)cccc2Cl)noc1C)c1nccs1	19	5.2%	0	3.9	3	0.0
CCn1cc(SCC(=O)N2CCc3ccccc32)c2ccccc21	-3	2.2%	-2	1.8	-13	0.4
COC(=O)c1ccc2c(=O)n(CCCCCC(=O)N3CCN(c4ccc(F)cc4)CC3)c(=O)[nH]c2c1	4	8.2%	2	-0.2	6	0.7
Cn1nc(C(=O)NCc2ccccc2CN2CCCC2)c2ccccc2c1=O	2	2.2%	-3	-1.8	7	-0.1
CCOC(=O)C1(Cc2ccccc2Cl)CCN(C(=O)CCn2ccnc2C)CC1	3	3.9%	-4	0.4	7	-0.3
Cc1ccc(C(=O)NCC(=O)N2CCC3(CC2)NCCc2[nH]cnc23)cc1C	-18	0.9%	0	-6.0	6	-0.1
Cc1ccccc1C(=O)c1cccn1CC(=O)NCc1ccc(F)cc1	23	-1.0%	-1	1.2	5	0.4
O=S(=O)(/N=C(/Nc1ccc(Cl)cc1Cl)c1ccccc1)c1cccs1	26	-0.9%	4	3.6	3	-0.2
O=S(=O)(c1ccc(Cl)cc1)c1nc(-c2ccccc2Br)oc1N1CCOCC1	-5	1.9%	nt	nt	nt	0.0
COc1ccc(-c2ccc3[nH]c4c(c3c2)CCN2C(=O)[C@@H]([C@H](C)O)[C@@H](N(C)C(=O)Nc3ccccc3)C[C@@H]42)cc1	3	24%	-19	-3.7	-10	1.1
OC(Cc1cccc(C=NN2CCOCC2)n1)(C(F)(F)F)C(F)(F)F	-13	0.0%	15	-2.2	0	0.1
COc1cc(S(=O)(=O)N2CCN(Cc3cccs3)CC2)ccc1NC(C)=O	45	-0.4%	0	1.7	4	1.2
Cc1nc(-c2cccnc2)sc1C(N)=O	-13	-0.1%	0	-1.7	-4	-0.3
COc1ccc(N2C(=O)c3cccc4cccc(c34)C2=O)nn1	-16	?	0	2.5	-1	1.7

Given with each value named: entries from further up
Compound: Cc1ccc(C(=O)NCC(=O)N2CCC3(CC2)NCCc2[nH]cnc23)cc1C
  TRPML1 blocker = -18	PINK1 modulator = 0.9%	Six1-Eya2 inh = 0	D2 agonist = -6.0	CtBP-E1A inh = 6	TRPML1 ag = -0.1
Compound: COc1ccc(-c2ccc3[nH]c4c(c3c2)CCN2C(=O)[C@@H]([C@H](C)O)[C@@H](N(C)C(=O)Nc3ccccc3)C[C@@H]42)cc1
  TRPML1 blocker = 3	PINK1 modulator = 24%	Six1-Eya2 inh = -19	D2 agonist = -3.7	CtBP-E1A inh = -10	TRPML1 ag = 1.1

Compound activity deposited in PubChem by National Center for Advancing Translational Sciences (NCATS).
